High-throughput results (PubChem BioAssay)
miR-21 FLuc: miR-21 reporter, rising signal; HeLa miR-21 FLuc reporter, luciferase, 48 h; 340,000 tested, under 10 active; Potency, µM (highest dose often 38.3 µM), without a hit: top-dose reporter change, positive = more light; active = well fitted rising curve with a large enough effect; inconclusive = small, poorly fitted or top-dose-only effect; inactive = no such curve, though single readings can be large or run the other way;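 also: % of control where 0% means no effect; miR-21 action dims this reporter so a rising signal means less miR-21 action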
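Compounds were titrated across several concentrations (up to approximately 40 uM) and incubated 48 hours with HeLa miR-21-FLuc reporter cells (miR-21 target sequence downstream of FLuc, endogenous miR-21). Readout was firefly luciferase luminescence after lytic detection reagent.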
Rango dissoc inh: inhibition of RanGTP-driven Rango-importin beta dissociation. Biochemical FRET Rango-importin beta, RanGTP-induced dissociation. Potency, µM (doses to about 46.1 µM), for the others: at the top dose activity change, negative = inhibition. 340,000 compounds, 0.071% hits. AID 540253; active means falling FRET ratio curve, often poorly fitted, with flat reads before Ran was added; inconclusive means other falling curves, or compound fluorescence or quenching; inactive means flat or rising ratio curve;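 also: potency is read from the fitted curve at half-maximal effect; % of control where 0% means no effect; nearly all actives have a fitted effect of over 45% in size; -100% = wells without RanGTP and RCC1; the record marks most hits as doubtful in a second field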
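Two FRET readings bracket the reaction: one 5 min after compound meets Rango–importin beta, another 45 min after RanGTP-RCC1 (0.6 uM Ran, 0.2 uM RCC1, 2 mM GTP) is added. Only the second defines inhibition.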
Rango-impB inh: prevents formation of the Rango-importin beta complex; Q14974; Rango CFP/YFP FRET sensor + importin beta, 45 min; Potency, µM (doses to about 92.2 µM), without a hit: at the top dose inhibition of complex formation; 340,000 compounds, 0.031% hits; AID 540263; active = rising FRET ratio curve, often small or poorly fitted; inconclusive = mostly compound fluorescence or quenching in the first reads; inactive = flat curves in all reads;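 also: potency is read from the fitted curve at half-maximal effect; 0% = DMSO wells and 100% = buffer wells lacking importin beta; nearly all actives have a fitted effect of over 15% in size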
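FRET biosensor Rango (snurportin 1 IBB between N-terminal EYFP and C-terminal Cerulean), 50 nM in PBS/1 mM DTT/0.02% Tween-20/0.1% BSA, preincubated 5 min RT with compound; 0.125 microM importin beta added, 45 min RT, CFP/YFP FRET ratio read.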
GLA inh pH 4.5: blocks human alpha-galactosidase A at pH 4.5; activity change, negative = inhibition, % at 105 µM; purified enzyme, 4-MU-alpha-Gal fluorescence, pH 4.5; 230,000 tested, under 10 active; AID 1467; inconclusive = small, poorly fitted or top-dose-only inhibition, or a rising curve; inactive = flat fitted curve, though single readings scatter; no compound was filed as active;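 also: 0% = full activity with enzyme and -100% = basal without enzyme; dose as in the result columns while the protocol names 77 µM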
Target sequence (P06280 whole entry, looked up): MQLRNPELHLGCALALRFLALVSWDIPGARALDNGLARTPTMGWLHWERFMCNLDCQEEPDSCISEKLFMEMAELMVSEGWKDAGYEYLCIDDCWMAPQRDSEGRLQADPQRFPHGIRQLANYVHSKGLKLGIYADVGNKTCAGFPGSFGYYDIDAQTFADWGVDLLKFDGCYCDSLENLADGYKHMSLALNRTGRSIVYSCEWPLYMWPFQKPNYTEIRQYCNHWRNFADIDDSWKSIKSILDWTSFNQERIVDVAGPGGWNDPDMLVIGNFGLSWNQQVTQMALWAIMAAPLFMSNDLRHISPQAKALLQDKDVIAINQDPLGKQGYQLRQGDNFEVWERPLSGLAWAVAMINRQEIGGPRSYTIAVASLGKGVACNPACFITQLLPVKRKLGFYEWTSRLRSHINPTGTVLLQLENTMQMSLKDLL
Active calls of the source: *; ? = inconclusive; / = not tested or not shown; [ ] = another dose, or the depositor's remark. An excerpt; rates above refer to the full screens.

SMILES	miR-21 FLuc	Rango dissoc inh	Rango-impB inh	GLA inh pH 4.5
O=C(NCc1ccccn1)c1ccc(Cl)c(S(=O)(=O)N2CCCCCC2)c1	11%	-12%	0.4%	/
COc1cc(N=Cc2c(O)c3ccccc3oc2=O)c(OC)cc1Cl	-3%	-23%	?	/
CCN(CC)S(=O)(=O)c1cc(NC(=O)C(CC(C)C)NC(N)=O)ccc1C (configuration not stated)	-3%	-12%	-0.9%	2
COc1ccc(S(=O)(=O)N2CCCCC2C(=O)O)cc1 (configuration not stated)	0%	-4%	-5.5%	3
COc1ccc(CC(=O)Nc2cc(S(=O)(=O)N3CCCC3)ccc2Cl)c(OC)c1	/	42%	5.6%	/
Cn1c(N)c(C(=O)COC(=O)Cn2cc(C(F)(F)F)ccc2=O)c(=O)n(C)c1=O	-12%	-12%	3.3%	7
O=C(COC(=O)C1=COCCO1)Nc1ccc(F)cc1	/	16%	-3.1%	/
CS(=O)(=O)N1CCC(NC(=O)Nc2ccc(OC(F)(F)F)cc2)CC1	/	-2%	?	/
CC(C)(C)NC(=O)CN(C(=O)C1CSC(=O)C1)c1ccccc1F (configuration not stated)	0%	1%	-1.2%	7
CC(OC(=O)c1cccs1)C(=O)NCC1CCCO1 (configuration not stated)	-2%	16%	1.3%	5
CC1(C)Cc2nc3n[nH]c(N)c3cc2CO1	-6%	15%	7.9%	-15
CCc1ccc(C(=O)NC(CC(C)C)C(=O)O)cc1 (configuration not stated)	-1%	-18%	-0.3%	5
Cc1oc2c(CN3CCOCC3)c(O)ccc2c(=O)c1-c1ccc(Cl)cc1	-6%	6%	-0.1%	-5
COc1ccc(-c2ccc3c(c2)S(=O)(=O)c2cccc(C(=O)NCCOc4ccccc4Cl)c2C3=O)cc1OC	/	-4%	2.1%	/
O=C(c1ccccc1)C(Nc1ccccn1)c1ccccc1 (configuration not stated)	-14%	14%	1.7%	2
c1ccc(CN2CCCC3(CCCN(Cc4nc(CC5CC5)no4)C3)C2)cc1 (configuration not stated)	-1%	5%	-2.5%	-12
O=C(NCCc1c[nH]c2ccccc12)c1cccc(Br)c1	-15%	-1%	-2.8%	/
COc1ccc(-c2cc3nc4ccccc4n3c(N)c2C#N)cc1	-36%	-13%	0.6%	-3
Cc1ccc(NC(=O)C2CC(=O)N(c3ccc4c5c(cccc35)CC4)C2)cc1 (configuration not stated)	-5%	1%	-2.2%	-2
CCc1cc2c(COC(=O)c3c(C)noc3C)cc(=O)oc2cc1O	-12%	?	?	3
CCC(C)NS(=O)(=O)c1ccc(NS(C)(=O)=O)cc1 (configuration not stated)	-5%	4%	0.7%	1
CCOC(=O)Cn1c(=O)oc2cc(S(=O)(=O)NCc3ccccn3)ccc21	2%	-2%	3.5%	2
Cn1c(SCCOc2ccc(F)cc2)nnc1-c1ccncc1	-6%	6%	-3.3%	5
COc1ccc(C2(SCC(N)C(=O)O)c3ccccc3-c3ccccc32)cc1 (configuration not stated)	/	-4%	-1.8%	/
O=C(NCc1ccco1)C(c1cccs1)N(Cc1ccccc1)C(=O)Cn1nnc2ccccc21 (configuration not stated)	-10%	0%	?	2
Cc1ccc(S(=O)(=O)CCC(=O)OCC(=O)N(Cc2ccccc2)C(C)C)cc1	/	6%	0.2%	/
CCOC(=O)c1sc(N)c(C(=O)OC)c1C	-59%	-10%	0.7%	4
Cc1cc(Oc2ccc(OCC(N)=O)nn2)nc(Cl)n1	1%	-7%	-1.2%	26
C[C@@H]1CN([C@@H](C)CO)C(=O)c2cc(NS(C)(=O)=O)ccc2O[C@@H]1CN(C)Cc1ccc(C(F)(F)F)cc1	/	5%	0.2%	/
COc1cc(OC)cc(C(=O)Nc2ccc(N3CCN(C(=O)c4cccs4)CC3)cc2)c1	13%	-1%	-0.8%	/
Cc1cccc(CNC(=O)CCCn2nc(C)c3c(C)n(-c4ccccc4)nc3c2=O)c1	2%	1%	-1.8%	/
O=C(CCNC(=O)c1ccc(Cl)cc1)NCc1ccco1	/	7%	0.6%	/
COc1ccccc1C(=O)Nc1ccc2c(c1)C(=O)NC2=O	-18%	-3%	-0.8%	/
CCOc1ncccc1C(=O)Nc1cccc(Cl)c1Cl	3%	-3%	2.9%	9
NS(=O)(=O)c1cccc(NC(=O)CSc2ncc(C(F)(F)F)cc2Cl)c1	-10%	-6%	-0.1%	-7
Cc1ncc(C23CC4CC(CC(C4)C2)C3)[nH]1	-7%	4%	-0.2%	-1
CCOC(=O)N1CCN(C(=O)c2cn(-c3ccc(C)c(C)c3)c(=O)c3ccccc23)CC1	-6%	16%	-1.1%	-8
O=C(N/N=C/c1ccc(N2CCCCC2)o1)C(O)(c1ccccc1)c1ccccc1	-5%	/	/	-4
CC1(C)NC(=O)N(CCOc2cccc(Cl)c2Cl)C1=O	-6%	8%	0.0%	-15
O=C(CCC1CCCN(C(=O)c2cccc(F)c2)C1)N1CCN(c2ccccn2)CC1 (configuration not stated)	10%	-1%	-0.4%	/
COc1ccc(-c2nn(-c3ccccc3)cc2/C=C(\CC(=O)O)c2nc3ccccc3s2)cc1OC	-26%	-6%	?	2
Cc1ccc([N+](=O)[O-])cc1NC(=O)C(C)Sc1nnc(C)n1CC1CCCO1 (configuration not stated)	2%	-13%	0.6%	/
CCCc1c(C)[nH]c2nc3ccccc3n2c1=O	-11%	-19%	-0.1%	/
O=C1Nc2ccccc2C1=O	/	8%	-1.4%	/
O=c1[nH]c2cc(Cl)c(Br)cc2o1	/	32%	-2.9%	/
O=C(CSc1nnc(-c2ccncc2)n1Cc1ccco1)Nc1ccccc1Cl	-1%	1%	0.6%	10
Cc1cccc(NC(=O)c2ccc(S(=O)(=O)NCc3ccco3)cc2)n1	/	-5%	-3.9%	/
COC(=O)c1ccc(NC(=O)c2ccc(OC(C)=O)c(OC)c2)cc1	-53%	1%	-0.1%	1
CCOC(=O)C1=CN(Cc2ccco2)S(=O)(=O)NC1CC (configuration not stated)	/	-28%	-1.3%	/
O=[N+]([O-])c1ccc(N2CCN(S(=O)(=O)c3ccccc3)CC2)cc1NCCN1CCOCC1	2%	-1%	-0.4%	-11
CCC(NC(=O)Nc1cc(C)on1)(C(F)(F)F)C(F)(F)F	-2%	?	5.6%	-4
C[C@@H](C(=O)OCC(=O)NCCc1ccc(S(N)(=O)=O)cc1)N1C(=O)C2CCCCC2C1=O (some centres not stated)	3%	1%	0.0%	2
O=C(C1CCC(=O)N(C2CC2)C1)N1CCN(c2cccc(Cl)c2)CC1 (configuration not stated)	-1%	4%	0.1%	/
CCOC(=O)c1c(C)[nH]c(C(=O)OCC(=O)c2ccccc2)c1C	/	13%	-3.1%	/
CC(C(=O)Nc1ccc(Br)cc1)N(C)CC(=O)NCc1ccco1 (configuration not stated)	/	-2%	-0.5%	/
O=C(COc1ccc2c(c1)CCC2)N1CCN(c2ccc(F)cc2)CC1	9%	-12%	3.2%	/
O=C1Nc2c(c(=O)[nH]c(=O)n2Cc2ccccc2)C1(NS(=O)(=O)c1ccccc1)C(F)(F)F (configuration not stated)	-5%	4%	0.1%	-8
COc1cc(/C=C/c2[nH]c(=O)[nH]c(=O)c2[N+](=O)[O-])cc(OC)c1O	1%	1%	-0.3%	/
Cc1ccc(NC(=S)Nc2ccc3[nH]c(=O)[nH]c3c2)cc1C	0%	6%	-5.2%	-4
O=C(CSc1nccc(=O)[nH]1)N1CCCc2ccccc21	-3%	-9%	-1.5%	-2

Part of the list above in order of molecular weight, low to high.
SMILES	miR-21 FLuc	Rango dissoc inh	Rango-impB inh	GLA inh pH 4.5
COc1ccccc1C(=O)Nc1ccc2c(c1)C(=O)NC2=O	-18%	-3%	-0.8%	/
CC1(C)NC(=O)N(CCOc2cccc(Cl)c2Cl)C1=O	-6%	8%	0.0%	-15
CCOC(=O)c1c(C)[nH]c(C(=O)OCC(=O)c2ccccc2)c1C	/	13%	-3.1%	/
CCN(CC)S(=O)(=O)c1cc(NC(=O)C(CC(C)C)NC(N)=O)ccc1C (configuration not stated)	-3%	-12%	-0.9%	2
C[C@@H](C(=O)OCC(=O)NCCc1ccc(S(N)(=O)=O)cc1)N1C(=O)C2CCCCC2C1=O (some centres not stated)	3%	1%	0.0%	2
O=C1Nc2c(c(=O)[nH]c(=O)n2Cc2ccccc2)C1(NS(=O)(=O)c1ccccc1)C(F)(F)F (configuration not stated)	-5%	4%	0.1%	-8

New compounds follow.
SMILES	miR-21 FLuc	Rango dissoc inh	Rango-impB inh	GLA inh pH 4.5
CCCCC(=O)Nc1cccc(NC(=O)c2cccc(Br)c2)c1	5%	9%	4.8%	2
CC1CCCCC1NC(=O)CCCCn1c(=O)[nH]c2ccsc2c1=O (configuration not stated)	-2%	-7%	1.5%	/
CC1CCCC(C)N1CCNC(=O)CCc1nnc2n(Cc3ccccc3)c(=O)c3ccccc3n12 (configuration not stated)	-3%	13%	-2.4%	/
O=C(COC(=O)Cc1ccc(Br)cc1)NC12CC3CC(CC(C3)C1)C2	-11%	4%	-6.0%	-1
O=C(Nc1ccccc1O)c1ccc2c(c1)C(=O)N(N1C(=O)c3ccccc3C1=O)C2=O	3%	1%	-2.6%	/
CC(=O)Nc1ccc(S(=O)(=O)Oc2ccc(C(=S)N3CCC(O)CC3)cc2)cc1	16%	-8%	4.0%	4
COC(=O)/C(=C1/Oc2cc3c(cc2S1)OCO3)C(F)(F)F	-6%	0%	-0.2%	2
COCCNC(=O)c1c(CSc2ccc(F)cc2)noc1C(=O)NCc1ccccc1	-8%	-18%	-1.2%	-9
CCc1nnc(NC(=O)CSc2nnc(-c3ccccc3OC)n2-c2ccc(C)cc2)s1	2%	-9%	-0.8%	-1
Cc1ccc(C)n1-c1ccccc1N	24%	/	/	4
CN(CC(=O)Nc1cccc(F)c1)C(=O)/C=C/c1cn(Cc2ccccc2)nc1-c1cccnc1	/	-15%	-0.1%	/
C=CCc1ccc(OCCOCCN(C)C)c(OC)c1	0%	0%	-1.1%	-2
Cc1cc2ccccc2n2c(SCC(=O)NCc3cccs3)nnc12	-8%	-7%	?	-6
COc1ccc(NC(=O)Cn2cnc3c(cnn3C(C)(C)C)c2=O)cc1OC	2%	-10%	-1.8%	0
COc1ccc(C2=NN(C(=O)c3cccs3)C(O)(C(F)(F)F)C2)cc1 (configuration not stated)	-15%	-8%	0.3%	3[21.1 µM]
Cc1ccc(CSC2=NCCN2C(=O)c2ccco2)cc1	-22%	?	-1.7%	4
CC(C)C[C@H](NC(=O)C1CC(=O)N(c2ccc3c(c2)OCO3)C1)C(=O)NC1CCCCC1 (some centres not stated)	-5%	12%	-1.2%	/
O=C(COC(=O)c1cccc(S(=O)(=O)N2CCOCC2)c1)Nc1nc(-c2ccccc2Cl)cs1	-22%	-11%	2.4%	6
Cc1ccc(NS(=O)(=O)c2cccc(C(=O)NCc3ccccn3)c2)cc1	/	0%	?	/
COC(=O)C1(C(F)(F)F)C2C=CC(C2)N1S(=O)(=O)c1ccc(C)cc1 (configuration not stated)	1%	-17%	0.3%	/
CCc1nc(CNC(=O)C2CCC(=O)N(CCc3ccc(OC)cc3)C2)cs1 (configuration not stated)	-3%	1%	1.6%	/
O=C1CC(c2ccc3c(c2)OCO3)Sc2nc3ccccc3n21 (configuration not stated)	-45%	9%	3.9%	0
CCOC(=O)C1CCN(S(=O)(=O)c2ccc(C)cc2)CC1	-7%	-7%	-1.9%	-4
O=c1[nH]c(SCc2ccccc2[N+](=O)[O-])nc2nc[nH]c12	-5%	8%	-0.4%	-3
O=C(c1cn(-c2ccccc2)nc1-c1cccs1)N(CCO)Cc1ccccc1	11%	-3%	-0.9%	-6
C/C(=N/NC(=O)Cc1ccccc1)c1ccc(C)s1	-26%	-8%	-1.9%	0
CSc1nc(N2CCCC2)c2c(c1C#N)CC(C)(C)OC2	-6%	0%	-0.1%	-9
CC(=O)N1CCN(c2ccccc2NC(=O)c2ccc(Br)o2)CC1	-7%	-4%	-0.6%	/
CC1SC(=Nc2ccccc2)N(S(=O)(=O)c2ccccc2)C1=O (configuration not stated)	-6%	12%	-2.0%	-2
O=C1c2ccccc2[C@@H]2C[C@@H](O)[C@H](Nc3ccccc3-c3ccccc3)CCN12	/	8%	-1.5%	/
